# Screens (PubChem BioAssay)
# D2 PAM – Beta-Arrestin HTS for Positive Allosteric Modulators of the Human D2 Dopamine Receptor: Potentiators. D(2) dopamine receptor (Homo sapiens), P14416. DiscoveRx D2 beta-arrestin cells, luminescence, 90 min; 100% = 57 uM dopamine signal. potentiation, % (test concentration not listed). 360,000 tested, 0.23% active; active = potentiation of 50% or more; inconclusive = 30% to 50%; inactive = 30% or less;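 also: compound concentration not given in the record; tested on top of an EC20 dose of dopamine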
#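 PathHunter beta-arrestin assay in DiscoveRx D2 cells. Compounds were added with an EC20 of dopamine (50 nM final) for 90 min at 37 deg C. Luminescence was read 1 h after detection reagent, with 57 uM dopamine as the EC100 control.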
# TRPML1 inh – qHTS for Inhibitors of the Human Mucolipin Transient Receptor Potential 1 (TRPML1) | Mucolipin-1 (Homo sapiens), Q9GZU1 | TRPML1-inducible cells, Ca2+ dye fluorescence, FDSS; stronger effect = lower value; inhibition of EC80 agonist-evoked calcium signal | activity change, negative = inhibition, % (no concentration beside the values) | 390,000 tested, 0.02% active | AID 624415, 2012; in the data active means activity change below about -50%; inconclusive means about -30% to -50%; inactive means above about -30%;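 also: stimulus is agonist 54-4 at its EC80 concentration; % is scaled to controls: 0 for no effect and ±100 for the full control effect; compound concentration not given in the record; the text of the record puts the active cut at -80%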
#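 Tet-induced TRPML1-DL cells loaded with Ca8 no-wash calcium dye were read kinetically on FDSS. Compound addition was followed by EC80 agonist 54-4 (4 uM final); inhibition was read over 110 s.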
# PINK1 modulator – A Quantitative High throughput Screen to Identify Chemical Modulators of PINK1 Expression | PINK1 immunofluorescence, high-content cytometry, 24 h | Potency, µM (top dose mostly 76.6 µM), inactives show top-dose activation (PINK1 increase), hits mostly activators | 410,000 tested, 0.2% active; active = well fitted activation curve with a large enough effect; inconclusive = small, poorly fitted or top-dose-only effect; inactive = flat fitted curve, though single readings scatter; cell line not stated here;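 also: potency is read from the fitted curve at half-maximal effect; % of control where 0% means no effect; nearly all actives have a fitted effect of over 65% in size; a mitochondrial uncoupler was the plate control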
#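 Compound titrations (5 concentrations, 24 h) on a stable cell line; DMSO and CCCP controls. Endpoint: fixed-cell PINK1 immunofluorescence with mitochondrial, cell and nuclear markers, scanned by microplate cytometer.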
# D2 agonist – Beta-Arrestin HTS for Positive Allosteric Modulators of the Human D2 Dopamine Receptor: Agonists | AID 624465, 2012 | 360,000 tested, 0.084% active | D(2) dopamine receptor (Homo sapiens), P14416 | activation, % (test concentration not listed) | DiscoveRx PathHunter D2 beta-arrestin, luminescence, 90 min; 100% = 57 uM dopamine signal; in the data active = activation above about 40%; inconclusive = about 15% to 40%; inactive = below about 15%; also: compound concentration not given in the record; the text of the record calls up to 30% inactive
#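 Agonist mode: compounds alone added to overnight-plated D2 PathHunter cells for 90 min at 37 C, with 57 uM final dopamine (EC100) defining full response. Beta-arrestin recruitment detected by chemiluminescent reagent, read after 1 h at ambient temperature.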
# TRPML1 agonist – qHTS for Agonists of the Human Mucolipin Transient Receptor Potential 1 (TRPML1). 410,000 tested, 0.12% active. activation, % (test concentration not listed). TRPML1-expressing cells, Ca2+ dye fluorescence, FDSS; host cell line not named in the record; reference of the full effect not given here. Mucolipin-1 (Homo sapiens), Q9GZU1; in the data active = activation above about 50%; inconclusive = about 30% to 50%; inactive = below about 30%; also: 0% is about no effect; the text of the record puts the active cut at 80%
#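 In this qHTS format, compounds were pin-transferred onto Ca8-dye-loaded TRPML1-DL cells induced with Tet overnight, and intracellular Ca2+ fluorescence was recorded kinetically for 110 s after a 10 s baseline. A subsequent 4uM final 54-4 (EC80) addition followed by a second 110 s read served as the antagonist phase.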
# Six1-Eya2 inh – qHTS Assay for Inhibitors of the Six1/Eya2 Interaction; Homeobox protein SIX1 (Homo sapiens) + Protein phosphatase EYA2 (Homo sapiens), …; activity change, % (test concentration not listed); 360,000 tested, 0.56% active; AlphaScreen GST-Six1/His-Eya2 binding, biochemical; stronger effect = lower value; control for the full effect not named in the record; AID 651725, 2012; in the data active = activity change below about -65%; inconclusive = about -30% to -65%; inactive = above about -30%; also: % is scaled to controls: 0 for no effect and ±100 for the full control effect; compound concentration not given in the record
# Target sequence (O00167 whole entry, looked up): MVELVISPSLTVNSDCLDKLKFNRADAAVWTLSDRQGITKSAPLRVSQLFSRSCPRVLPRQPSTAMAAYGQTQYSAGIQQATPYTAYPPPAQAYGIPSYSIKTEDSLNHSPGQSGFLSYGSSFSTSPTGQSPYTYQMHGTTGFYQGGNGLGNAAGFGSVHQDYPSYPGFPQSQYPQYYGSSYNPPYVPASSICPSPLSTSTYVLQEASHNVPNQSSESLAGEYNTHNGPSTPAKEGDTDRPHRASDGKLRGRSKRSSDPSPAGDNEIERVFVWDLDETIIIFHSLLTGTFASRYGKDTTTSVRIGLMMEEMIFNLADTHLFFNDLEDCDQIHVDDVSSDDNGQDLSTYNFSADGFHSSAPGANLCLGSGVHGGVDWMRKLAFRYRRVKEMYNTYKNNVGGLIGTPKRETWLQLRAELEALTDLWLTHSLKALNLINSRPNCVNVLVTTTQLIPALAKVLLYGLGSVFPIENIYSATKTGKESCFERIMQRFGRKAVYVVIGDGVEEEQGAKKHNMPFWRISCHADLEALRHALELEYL
# Target sequence (Q15475 whole entry, looked up): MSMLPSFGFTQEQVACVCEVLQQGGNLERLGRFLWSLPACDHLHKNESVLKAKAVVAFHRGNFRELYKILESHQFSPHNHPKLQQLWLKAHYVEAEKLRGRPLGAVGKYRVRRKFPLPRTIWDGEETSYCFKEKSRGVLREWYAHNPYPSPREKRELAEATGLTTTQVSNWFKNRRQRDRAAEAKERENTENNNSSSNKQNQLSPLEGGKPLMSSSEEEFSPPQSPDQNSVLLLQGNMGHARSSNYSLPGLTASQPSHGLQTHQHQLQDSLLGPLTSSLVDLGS
#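 Six1/Eya2 binding was read as AlphaScreen signal after compounds were pinned into GST-Six1 plus His-tagged Eya2 (5X stock 250/500 nM) in pH 8.0 Tris/NaCl/TCEP buffer, beads added, then incubated 1 h, 37 C, dark.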
# Active calls of the source: *; ? = inconclusive; . = no result given; [ ] = dose if it differs, or a comment. This is a random part of the collection; 1% or so of the library scored in one or more.
entry	SMILES	D2 PAM	TRPML1 inh	PINK1 modulator	D2 agonist	TRPML1 agonist	Six1-Eya2 inh
1	COC(=O)NCC12CC3CC(C1)CC(CNC(=O)OC)(C3)C2	0	36	-0.9%	0.2	5.3	7
2	O=C(OCc1ccccc1)N1CCOCCN(C(=O)OCc2ccccc2)CCOCC1	-27	-3	-0.8%	1.8	-0.6	8
3	CCC(C)NC(=O)CN(c1ccc2c(c1)OCO2)S(=O)(=O)c1c(C)n[nH]c1C (stereo unspecified)	-3	-4	3.0%	-0.7	-0.2	7
4	COc1ccc(C2=NO[C@@H]3C(=O)N(c4cccc(C)c4C)C(=O)[C@H]23)cc1OC	9	-2	0.1%	0.9	0.3	-1
5	Cc1c(-c2nc(-c3ccc4c(c3)[nH]c(=O)n4C)no2)cccc1[N+](=O)[O-]	.	-16	-5.3%	.	0.9	.
6	CCN(CC(=O)NCc1ccc(F)cc1)C(=O)c1ccc(C)o1	1	-7	0.6%	3.4	-0.6	-4
7	CCOc1cc(CN2CCN(c3cccc(C(F)(F)F)c3)CC2)ccc1O	-24	-2	17%[38.3 µM]	0.1	0.8	-13
8	COc1cc(C(=O)Nc2nnc(Cc3ccccc3)s2)cc(OC)c1OC	-1	-1	9.5%	-0.2	0.0	-3
9	Cc1ccc(S(=O)(=O)N2CCC(C(=O)Nc3ccncc3)CC2)cc1	-1	-11	0.8%	3.5	0.7	5
10	Cc1ccc(Cl)cc1NC(=O)c1ccc2nc(CCc3ccccc3)oc2c1	.	66	2.0%	.	0.9	.
11	CCN(CC)CC(=O)Nc1ccc(-c2nc3cc(NC(=O)CN(CC)CC)ccc3o2)cc1	0	3	4.0%	0.1	-0.2	0
12	Cc1sc(NC(=O)c2cccc(N3C(=O)CCC3=O)c2)nc1-c1ccccc1	27	-10	0.6%	-3.0	-0.5	-10
13	NC(=O)COC(=O)c1ccccc1OCc1ccccc1Cl	-16	-1	-1.0%	4.3	0.4	2
14	Cc1ccccc1NC(=O)CCC(=O)N/N=C/c1cc([N+](=O)[O-])ccc1O	-15	-1	1.0%	-9.5	-0.2	-79*
15	COCCCNC(=O)C(C)n1c2ccccc2c2cnn(C)c(=O)c21 (stereo unspecified)	.	0	-1.0%	.	-0.8	.
16	Cc1cc(C)c(NS(=O)(=O)c2cc(-c3cnc(C4CC4)o3)ccc2C)c(C)c1	.	13	1.5%	.	0.8	.
17	CC(C)(O)C#Cc1ccc(CN2CCN(C3CCCC3)C(CCO)C2)cc1 (stereo unspecified)	-13	-1	0.3%	-2.1	-0.4	-6
18	CCc1cccc(Nc2ncnc3onc(-c4ccc(F)cc4)c23)c1	.	48	5.9%	.	3.1	.
19	O=C(NCC1CCCO1)c1ccc(Br)c(S(=O)(=O)N2CCOCC2)c1 (stereo unspecified)	-11	0	1.1%	-1.9	-0.6	3
20	O=C(CCc1nnc(CCCCc2ccccc2)o1)NCCN1CCCCC1=O	-3	0	-0.9%	-3.1	-0.1	3

# Structural class: the compounds so far with fluorine.
entry	SMILES	D2 PAM	TRPML1 inh	PINK1 modulator	D2 agonist	TRPML1 agonist	Six1-Eya2 inh
6	CCN(CC(=O)NCc1ccc(F)cc1)C(=O)c1ccc(C)o1	1	-7	0.6%	3.4	-0.6	-4
7	CCOc1cc(CN2CCN(c3cccc(C(F)(F)F)c3)CC2)ccc1O	-24	-2	17%[38.3 µM]	0.1	0.8	-13
18	CCc1cccc(Nc2ncnc3onc(-c4ccc(F)cc4)c23)c1	.	48	5.9%	.	3.1	.

# Carrying on:
entry	SMILES	D2 PAM	TRPML1 inh	PINK1 modulator	D2 agonist	TRPML1 agonist	Six1-Eya2 inh
21	CC1CCN(C(=S)NC(=O)c2ccccc2Br)CC1	-9	2	2.4%	-3.8	0.2	1
22	CCc1nn2c(=O)cc(CSc3nc(C)cc(=O)[nH]3)nc2s1	-6	-1	-0.4%	-5.2	-0.8	0
23	CSc1ncc(-c2ccc(Cl)cc2)[nH]1	-13	-1	3.6%	-18	1.1	2
24	O=C(CSc1nncn1-c1ccccn1)Nc1ccccc1Cl	0	-6	2.9%	4.3	-1.1	7
25	COc1ccccc1C(=O)Nc1ccnn1C1CCN(C/C=C/c2ccc(F)cc2)CC1	-26	-11	-0.7%	-2.0	0.4	10
26	CCCN(CCC)CC(O)CN(c1ccccc1)S(=O)(=O)c1ccc(C)cc1 (stereo unspecified)	-17	-6	-1.4%	-0.3	-0.1	2
27	COc1ccc(C(=O)C(=O)c2ccc(OCCO)cc2)cc1	-7	3	1.0%	-1.8	-0.4	0
28	CN1CCCc2cc(C#N)c(=O)[nH]c21	-7	6	-0.8%	1.8	-0.1	-2
29	O=C(Cn1cnc2ccccc21)c1ccc(Br)cc1	-4	39	0.5%	-2.8	0.0	0
30	CO/N=C\CC(=O)Nc1ccc(Oc2ccccc2)cc1	4	1	6.2%	5.7	-1.0	4
31	COc1ccc(NC(=O)CSc2nnc3n2CCCCC3)cc1S(=O)(=O)N1CCOCC1	1	-7	-0.5%	-2.7	-0.4	6
32	Cc1nn(-c2ccccc2)c(N2CCCC2)c1/C=N/NC(=O)c1cc(-c2ccccn2)nc2ccccc12	-5	3	0.8%	1.6	-0.7	-8
33	Cc1ccc(-c2nc(CN(C)C3CCOCC3)c(C)o2)s1	-4	24	0.6%	-6.7	0.5	1
34	O=C(CSc1cn(Cc2ccccc2)c2ccccc12)NCc1ccc(F)cc1	-4	17	3.4%	-0.1	2.5	4
35	CS(=O)(=O)N(CC(=O)Nc1ccc2c(c1)OCCO2)Cc1ccc(Cl)cc1	-16	11	0.7%	-4.2	0.3	-20
36	COc1ccc(NC(=O)Cc2cccs2)c(OC)c1	18	25	0.0%	-3.4	-1.4	2
37	O=S(=O)(c1ccc(Br)cc1)N1CCN(c2cc(-c3ccccc3)nc3ncnn23)CC1	-9	-8	-4.2%[38.3 µM]	-1.3	3.4	3
38	CCCC(C)c1nc(C(N)=O)c2[nH]c(=O)n(-c3ccc(OC)c(OC)c3)c2n1 (stereo unspecified)	-2	19	-0.4%	2.0	1.1	4
39	COC(=O)c1sc2nc(-c3ccco3)ccc2c1N	-19	9	9.0%	-2.9	0.6	-2
40	Cc1ccsc1/C=N/n1c(-c2ccncc2)n[nH]c1=S	-5	5	-1.7%	-3.8	-1.0	8
41	Cc1ccc(-n2c(N)c(C(=O)NCc3ccco3)sc2=S)cc1	-8	5	1.3%	-6.7	-0.5	-23
42	CCOC(=O)/C(=N/Nc1ccc(Cl)cc1)S(=O)(=O)c1ccccc1	8	83	.	-3.3	2.3	-13
43	COc1ccc(-n2nc(C(=O)NCC(=O)N3CC(C)CC(C)C3)c3ccccc3c2=O)cc1 (stereo unspecified)	-2	1	-0.7%	5.1	0.8	3
44	O=c1[nH]c(CSc2ncc(-c3ccc(F)cc3)n2Cc2ccco2)nc2ccccc12	13	4	-2.4%	0.0	1.8	-21
45	CC1CCC(NC(=O)c2cnccn2)CC1 (stereo unspecified)	-16	-7	-2.3%	-2.0	-0.7	4
46	COCCn1c(SCC(=O)Nc2cccc(C)n2)nnc1-c1ccco1	-5	5	1.9%	5.0	-0.2	9
47	COc1ccc(OC)c(/C=C2\SC(N3CCCCC3)=NC2=O)c1	-14	7	0.9%	-3.8	-1.1	3
48	CNC(=O)[C@H]1O[C@@H](n2cnc3c(NCc4cccc(I)c4)nc(Cl)nc32)[C@H](O)[C@@H]1O	5	-7	1.5%	-4.9	0.7	4
49	Cc1c(COc2ccc3ccccc3c2)nnn1CC(=O)NS(=O)(=O)c1ccccc1C(F)(F)F	-4	.	1.4%	1.2	1.6	9
50	CC(=O)C1=C(O)C(=O)N(c2ccc(Br)cc2)C1c1ccc(Cl)cc1 (stereo unspecified)	0	18	4.9%	-0.6	0.7	-4

# Among those listed so far, these contain a CF3 group.
entry	SMILES	D2 PAM	TRPML1 inh	PINK1 modulator	D2 agonist	TRPML1 agonist	Six1-Eya2 inh
7	CCOc1cc(CN2CCN(c3cccc(C(F)(F)F)c3)CC2)ccc1O	-24	-2	17%[38.3 µM]	0.1	0.8	-13
49	Cc1c(COc2ccc3ccccc3c2)nnn1CC(=O)NS(=O)(=O)c1ccccc1C(F)(F)F	-4	.	1.4%	1.2	1.6	9

# Looked up by structure from above:
entry	SMILES	D2 PAM	TRPML1 inh	PINK1 modulator	D2 agonist	TRPML1 agonist	Six1-Eya2 inh
50	CC(=O)C1=C(O)C(=O)N(c2ccc(Br)cc2)C1c1ccc(Cl)cc1 (stereo unspecified)	0	18	4.9%	-0.6	0.7	-4
45	CC1CCC(NC(=O)c2cnccn2)CC1 (stereo unspecified)	-16	-7	-2.3%	-2.0	-0.7	4

# More records
entry	SMILES	D2 PAM	TRPML1 inh	PINK1 modulator	D2 agonist	TRPML1 agonist	Six1-Eya2 inh
51	O=C(Nc1ccncc1)C1c2ccccc2Oc2ccccc21	1	3	-3.7%	-5.3	1.0	-1
52	COc1ccc(-n2c(SCC(=O)Nc3nccs3)nnc2-c2ccoc2C)cc1	-4	-1	-0.4%	-2.6	2.3	-2
53	CCc1cc(C(=O)OC)c(NC(=O)CCCC(=O)O)s1	-9	5	-2.2%	-5.0	-0.5	0
54	CCCOc1c(Br)cc(C(N)=O)cc1OCC	-5	23	-0.7%	-0.7	5.5	2
55	C[C@H](CO)N1C[C@H](C)[C@@H](CN(C)C(=O)Nc2ccc3c(c2)OCCO3)OCc2cnnn2CCCC1=O	8	0	-0.5%	-1.9	-0.7	-5
56	CCOC(=O)C1CCCN(C(=O)c2ccc(N(C)C)cc2)CC1 (stereo unspecified)	-12	-9	0.0%	-3.6	0.0	1
57	COc1cccc2nc3c(C(=O)NCCN(C)C)cccc3cc12	-33	33	-6.6%	-7.7	3.2	0
58	CC(C)CNc1nc(SCC(=O)Nc2ccccc2)nc(N2CCOCC2)n1	0	-22	2.8%	1.6	3.8	4
59	CCC(C)[C@H](NC(=O)NCCC1=CCCCC1)C(=O)O (stereo partly specified)	-6	.	0.1%	-5.2	.	5
60	CC(=O)c1ccc(OC(C)C)c(CC(C(N)=O)C(N)=O)c1	4	-3	0.9%	2.1	0.5	0
61	CC(C)Nc1nc(Cl)nc(NN(C)c2nc(N(C)C)nc(N(C)C)n2)n1	0	-16	0.9%	-4.3	3.2	10
62	COC(=O)c1[nH]c2ccccc2c1NC(=O)c1ccccc1F	-13	-6	2.0%	-3.7	-0.3	-7
63	CCc1ccccc1NC(=O)N1CCN(C(=O)c2nsc3ccccc23)CC1	.	5	0.9%	.	1.8	.
64	OC(c1ccc(F)cc1)c1nc(-c2cc3ccccc3o2)cs1 (stereo unspecified)	2	.	2.6%	15	-0.7	1
65	C=CCSC1=C(C#N)C(c2ccccc2OCC)CC(=O)N1 (stereo unspecified)	-8	0	?	-1.2	5.7	2
